High-throughput results deposited in PubChem BioAssay by several laboratories.
PKD1 inh: blocks activity of human protein kinase D1; Q15139; PKD1 kinase fluorescence polarization assay; inhibition, %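 (about 10 µM by stock and volumes)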; 0.056% of 200,000 active;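 active means inhibition of 50% or more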;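 further: controls were vehicle for no effect and a reference inhibitor for full effect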
HSV augment: HSV replication enhancement | maximum fold increase | HSV replication augmentation in cells, fold increase | 0.005% of 220,000 active | AID 1956;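 active means peak rise of 1.5-fold or more in the series; inconclusive means self-fluorescent or not available for retest; tested in PC3 cells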;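 further: first round at 10 µM; read as green reporter fluorescence; hits show the peak of a series up to 25 µM; 1 = signal of infected wells without compound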
RGS16-Gao HTS: RGS16-Galphao interaction regulator (human). binding response (% of control), % at 10 µM. 0.38% of 220,000 active. bead-based flow cytometry RGS16-Galphao binding, fluorescence; actives lie on both sides. O15492+P09471;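 active means below 25% or above 175%, edge rows of some plates excepted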;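 further: Galphao activated by GDP with aluminum fluoride before binding; 100% = wells without compound and 0% = beads without RGS; some results beyond the cut were filed as inactive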
Target sequence (O15492 whole entry, looked up): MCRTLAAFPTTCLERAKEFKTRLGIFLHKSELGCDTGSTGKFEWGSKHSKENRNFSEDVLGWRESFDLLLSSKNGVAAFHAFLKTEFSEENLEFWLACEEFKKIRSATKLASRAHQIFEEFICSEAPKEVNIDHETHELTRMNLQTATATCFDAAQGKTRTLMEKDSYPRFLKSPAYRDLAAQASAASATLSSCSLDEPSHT
Target sequence (P09471 whole entry, looked up): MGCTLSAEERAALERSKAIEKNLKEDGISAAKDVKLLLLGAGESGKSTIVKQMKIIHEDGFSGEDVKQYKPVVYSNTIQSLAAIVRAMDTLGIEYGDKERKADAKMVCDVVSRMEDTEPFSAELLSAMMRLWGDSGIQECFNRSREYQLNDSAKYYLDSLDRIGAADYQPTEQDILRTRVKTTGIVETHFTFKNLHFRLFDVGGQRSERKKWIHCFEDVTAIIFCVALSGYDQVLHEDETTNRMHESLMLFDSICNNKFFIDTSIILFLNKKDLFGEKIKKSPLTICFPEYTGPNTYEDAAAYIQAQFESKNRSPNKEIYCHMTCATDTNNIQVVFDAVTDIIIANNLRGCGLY
GALR2 ag: agonists of human galanin receptor 2 (GALR2); 0.48% of 140,000 active; activation, %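 (tested at 5 µM)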; GALR2-expressing cells, agonist activation read-out;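 active means above mean plus 3 SD of all compounds, about 5% in these data, not always enough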;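 further: 0% = vehicle buffer wells and 100% = reference agonist at full effect; tested in CHO reporter cells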
Target sequence (O43603 whole entry, looked up): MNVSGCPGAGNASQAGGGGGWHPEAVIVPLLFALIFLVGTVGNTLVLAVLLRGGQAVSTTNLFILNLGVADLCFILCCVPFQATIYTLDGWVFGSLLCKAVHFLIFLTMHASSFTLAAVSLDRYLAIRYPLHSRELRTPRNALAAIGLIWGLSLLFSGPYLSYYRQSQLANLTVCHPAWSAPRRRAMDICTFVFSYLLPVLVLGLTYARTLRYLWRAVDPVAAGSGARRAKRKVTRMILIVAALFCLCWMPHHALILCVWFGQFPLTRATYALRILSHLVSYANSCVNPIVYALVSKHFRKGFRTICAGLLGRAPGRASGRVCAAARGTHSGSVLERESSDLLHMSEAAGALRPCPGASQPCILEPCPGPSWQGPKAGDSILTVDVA
Insulin prom inh: TRM-6 insulin promoter activity inhibition. TRM-6 cells (human fetal islet line), insulin promoter-eGFP reporter, imaging; reporter expression induced with tamoxifen. inhibition, % at 2 µM. 0.9% of 130,000 active;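 active means inhibition above the mean plus 3 SD, with well images judged a real hit on visual review, cut at about 60% in these data, passing the limit was not always enough; inconclusive means inhibition over the cutoff but images rejected on review; inactive means inhibition not above the cutoff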
Insulin prom inh cell count: further read-out of Insulin prom inh, marked with its call; normalized cell count, %; measured here: cell count, toxicity; reference of the scale not given here;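 cells exposed to compound for 48 h; stained nuclei by imaging scaled within each plate; lower means fewer cells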
HSV augment primary fold: also measured in HSV augment; calls as there; fold increase; compound at 10 µM; measured here: primary screen fold increase 10 uM; tested in PC3 cells;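 GFP signal in the first replicate; 1 = infected wells without compound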
* = called active by the depositor; i = inactive; ? = inconclusive; nt = no result given; [ ] = remark or other dose. The order is random. Share with any hit: about 1.2%.

No.	Structure	PKD1 inh	HSV augment	HSV augment primary fold	RGS16-Gao HTS	GALR2 ag	Insulin prom inh	Insulin prom inh cell count
1	CC1CCCC(NC(=O)COC(=O)c2ccc(N(C)C)cc2)C1C (stereo not given)	-1	i	0.86	106	-1.4	-371	62
2	COC(=O)C1=C(C)NC(=O)C1(NC(=O)c1cccnc1)C(F)(F)F (stereo not given)	-11	nt	nt	97	-2.6	3	102
3	O=C(O)CC12CC3CC(C1)CC(n1ncc(NCc4ccc(F)cc4)c(Cl)c1=O)(C3)C2	nt	i	0.99	94	nt	nt	nt
4	COc1cc(OC)c(-c2nnc(-c3ccc(OC)c(OC)c3OC)o2)cc1OC	-2	i	0.83	108	0.4	5	139
5	O=C(Nc1ccc(NC(=O)C23CC4CC(CC(C4)C2)C3)cc1)c1cc(F)c(F)cc1Cl	-4	i	1	104	-1.2	16	120
6	Cc1cc2c(cc1S(=O)(=O)N(C)c1ccccc1)NC(=O)CO2	-1	i	0.96	103	nt	nt	nt
7	O=C(CN1C(=O)NC2(CCc3ccccc32)C1=O)c1ccc2c(c1)OCCO2 (stereo not given)	-12	i	1	102	-0.5	-25	112
8	O=C(Nc1ccc(-c2csc(Nc3ccc(Cl)cc3)n2)cc1)c1cc([N+](=O)[O-])cc(C(F)(F)F)c1	nt	i	0.75	97	nt	nt	nt
9	CCc1ccc(N(CC(=O)Nc2nc3ccc(C)cc3s2)S(=O)(=O)c2c(C)noc2C)cc1	-8	i	0.83	102	-1.0	nt	nt
10	COc1ccc(C2NC(=O)NC(C)=C2C(=O)OCc2ccc3c(c2)OCO3)cc1OC (stereo not given)	-8	i	0.93	105	-1.9	-205	91
11	CC(=O)Nc1ccc(S(=O)(=O)N2CCN(C(=O)c3cccnc3)CC2)cc1	-2	i	0.97	100	-3.5	-32	92
12	CCOC(=O)C1CCN(C(=O)COc2ccc(Cl)cc2)CC1	-8	i	0.94	75	-1.8	0	133
13	Cc1csc2nc(CNS(=O)(=O)c3ccc(-c4ccccc4)cc3)cn12	-5	i	0.71	102	-0.3	-29	176
14	O=C(O)/C=C/c1ccc(-c2cccc(C(F)(F)F)c2)o1	3	i	1.1	100	nt	nt	nt
15	O=C(/C=C/Nc1ccccc1)c1ccc(Oc2ncccn2)cc1	2	i	1	96	-1.3	-11	84
16	O=C(C1CCN(S(=O)(=O)c2ccc3ccccc3c2)CC1)N1CCN(c2ncccn2)CC1	14	i	0.93	87	-1.7	14	166
17	CC1(C)C(=O)C2(CCCCC2)C(=O)OC1c1cccn1-c1ccc([N+](=O)[O-])cc1 (stereo not given)	-3	i	1.1	99	-1.5	nt	nt
18	COc1cc(OC)cc(-c2n[nH]c(=S)n2-c2ccc3c(c2)OCO3)c1	27	i	1	21*	0.2	nt	nt
19	CSc1nn(CCc2ccncc2)c(=S)s1	-6	i	1.1	55	-2.9	-42	118
20	CC(C)CN(/C=N/c1sc2c(c1C#N)CCCCC2)CC(C)C	1	nt	nt	104	-1.7	-3	125
21	CCOC(=O)c1c(NC(=O)CN2CCN(C(=O)c3ccco3)CC2)sc(C(N)=O)c1C	-6	i	0.97	114	nt	nt	nt
22	c1cnc(Oc2ccc3oc4ccccc4c3c2)nc1	-5	i	1.1	107	-2.5	nt	nt
23	c1ccc(CCc2nn3c(Cn4cnc5ccccc54)nnc3s2)cc1	5	i	1.1	89	-0.3	i	63
24	O=C(c1ccc(Cl)c([N+](=O)[O-])c1)N1CCN(Cc2ccc3c(c2)OCO3)CC1	5	i	0.87	93	nt	-121	138
25	CCOC(=O)CN1C(=O)C(Sc2n[nH]c(-c3ccc(C)cc3)n2)CCc2ccccc21 (stereo not given)	-8	i	0.81	100	-2.0	nt	nt
26	O=C(NC(=S)Nc1ccccc1[N+](=O)[O-])c1ccccc1Cl	nt	i	0.95	106	nt	nt	nt
27	Cc1ccc(CNC(=O)C(=O)NCC2OCCN2C(=O)c2cccs2)cc1 (stereo not given)	1	i	0.99	99	-0.9	nt	nt
28	CCOC(=O)CS(=O)(=O)c1ccc2ccccc2c1	-5	i	1	87	-3.6	nt	nt
29	CCn1c(C)c2c([n+]1CC)CC(C)(C)CC2=O	-3	i	0.74	103	-1.6	-29	180
30	Cc1ccc(-c2csc(/C(C#N)=C/Nc3ccc4c(c3)OCCO4)n2)cc1	2	nt	nt	105	-1.3	nt	nt
31	C=CCn1c(=N)c(C#N)cc2c(=O)n3ccccc3nc21	-2	i	0.95	103	6.0	26	129
32	CCCCCCn1c(SCCN2CCOCC2)nc2c1c(=O)[nH]c(=O)n2C	-9	i	1	98	-0.8	61	126

A draw from above in order of molar mass, rising.
No.	Structure	PKD1 inh	HSV augment	HSV augment primary fold	RGS16-Gao HTS	GALR2 ag	Insulin prom inh	Insulin prom inh cell count
30	Cc1ccc(-c2csc(/C(C#N)=C/Nc3ccc4c(c3)OCCO4)n2)cc1	2	nt	nt	105	-1.3	nt	nt
27	Cc1ccc(CNC(=O)C(=O)NCC2OCCN2C(=O)c2cccs2)cc1 (stereo not given)	1	i	0.99	99	-0.9	nt	nt
32	CCCCCCn1c(SCCN2CCOCC2)nc2c1c(=O)[nH]c(=O)n2C	-9	i	1	98	-0.8	61	126

Next part.
No.	Structure	PKD1 inh	HSV augment	HSV augment primary fold	RGS16-Gao HTS	GALR2 ag	Insulin prom inh	Insulin prom inh cell count
33	CCOC(=O)c1c(NC(=S)NC(=O)c2cnn(CC)c2)sc2c1CCC(C)C2 (stereo not given)	-6	i	0.98	101	0.2	nt	nt
34	Cc1cccnc1NC(=S)NCc1ccco1	-1	i	0.94	83	nt	-71	105
35	CCCN(CC1CC1)C(=O)CSc1nnc(-c2ccco2)n1N	-8	i	0.99	97	nt	nt	nt
36	C=CCN=C1CC(C)(C)CC(=O)/C1=C(/O)CCC(=O)OC	-16	i	0.97	102	-1.1	21	80
37	Cc1c(C(=O)Nc2cccc(N(C)S(C)(=O)=O)c2)cccc1[N+](=O)[O-]	3	i	0.96	104	nt	nt	nt
38	COc1ccc(NC(=O)Cc2cccs2)c(OC)c1	-8	i	1	65	-0.7	nt	nt
39	O=C(Nc1nc(-c2ccc(S(=O)(=O)N3CCCCCC3)cc2)cs1)c1ccccc1	10	i	0.88	100	-0.6	-42	19
40	CCN(c1ccccc1)S(=O)(=O)c1ccc(Cl)c(C(=O)N(CC2CCCO2)C2CCS(=O)(=O)C2)c1 (stereo not given)	-8	i	0.99	100	nt	nt	nt
41	NS(=O)(=O)c1ccc(CCNC(=O)c2ccc3nc4ccc(Cl)cc4c(=O)n3c2)cc1	-5	i	0.91	108	nt	-27	80
42	Cc1ccc(N2C(=O)CC(NCC3CCCO3)C2=O)cc1 (stereo not given)	3	i	0.9	107	nt	-9	190
43	O=c1[nH]c(N2CCN(Cc3ccccc3)CC2)nc2c1CCC2	-6	i	0.95	101	nt	nt	nt
44	CNC(=O)c1sccc1S(=O)(=O)Cc1c(Cl)cccc1Cl	2	i	0.94	113	-3.7	-26	55
45	CCS(=O)CCSc1nc2ccccc2s1 (stereo not given)	-7	i	1.1	97	-2.3	-3	16
46	COC(=O)[C@@H](NC(=O)Nc1ccc2c(c1)OCCO2)C(C)C	-4	i	1	98	-2.5	-57	158
47	O=C(CCn1c(=O)oc2ccccc21)NCc1cccs1	0	i	0.95	108	-2.6	56	121
48	CCC(C)C(=O)Nc1nnc(SCC(=O)Nc2ccccc2F)s1 (stereo not given)	6	i	1	105	nt	nt	nt
49	FC(F)(F)c1cc(NCc2cccs2)n2ncnc2n1	0	i	0.89	98	-0.8	-16	49
50	O=C(Nc1ccc2c(c1)C(=O)OC2)Nc1cccc2ccccc12	2	i	0.94	99	nt	nt	nt
51	O=C(CNCc1ccccc1)Nc1ccc(Oc2ccccc2)cc1	2	i	0.82	56	nt	nt	nt
52	CC(=O)NNc1[nH]c2c(c(=O)c1[N+](=O)[O-])c(=O)n(C)c(=O)n2C	2	i	0.96	100	nt	nt	nt
53	CCCc1cc(C(=O)NCc2ccco2)no1	-7	i	1	94	-1.4	nt	nt
54	Cc1nn(-c2ccccc2)nc1C(=O)Nc1ccc2[nH]ncc2c1	nt	i	0.94	98	nt	nt	nt
55	Cc1[nH]c2ccccc2c1C(=O)NS(=O)(=O)Nc1ccc(F)cc1	-5	i	0.94	98	nt	-13	92
56	N#CCCN(Cc1cccnc1)C(=S)Nc1ccccc1Cl	-8	i	0.99	126	nt	50	76
57	CN(C)c1nc(N)nc(CSc2nc3cc(Cl)ccc3o2)n1	-9	i	0.88	83	-1.1	-78	89
58	COc1ccc(COc2cc(-c3cccc(OC)c3)nc3ccc(NC(=O)c4ccc(Cl)cc4)cc23)cc1	-16	i	0.53	92	-1.7	20	97
59	CC(NC(=S)NC1CCCCC1)C(c1cccs1)N1CCOCC1 (stereo not given)	nt	i	0.91	110	nt	nt	nt
60	CC1(C)Cc2ccccc2-c2nnc(-c3ccccn3)n21	0	i	0.87	100	-2.2	7	135
61	Cc1cccc(NC(=O)Cn2c(=O)n(CCc3c[nH]c4ccccc34)c(=O)c3cccnc32)c1	-10	nt	nt	81	-2.1	-7	106
62	COc1cc(OC)cc(C(=O)N(CCCN2C(=O)c3cccc4cccc(c34)C2=O)c2cccc(OC)c2)c1	-14	i	0.85	101	0.9	nt	nt
63	CC(C)(C)OC(=O)[C@H](Cc1ccccc1)NC(=O)c1nc[nH]c1C(=O)N[C@@H](Cc1ccccc1)C(=O)OC(C)(C)C	nt	i	0.68	80	nt	nt	nt
64	O=C(NN1C(=O)c2ccccc2C1=O)C1CCCCC1	-2	nt	nt	88	-1.4	-43	60
65	COc1ccccc1C(=O)NCc1ccc(-c2nc3ccccc3s2)cc1	-4	i	0.8	114	-2.4	nt	nt
66	CCCn1c(CN2CCN(c3cccc(Cl)c3)CC2)nc2c1c(=O)n(C)c(=O)n2C	-8	i	0.95	107	-2.1	nt	nt
67	Cn1c(SCC(=O)NCc2cccs2)nnc1-c1ccncc1	11	i	1.1	101	-0.1	nt	nt
68	COc1ccccc1Nc1ccc(C(=O)NC2CCCCC2)cn1	6	i	0.94	100	0.2	21	258
69	CC1(C)CC(=O)C(CC2=C(N)CC(C)(C)CC2=O)=C(N)C1	nt	i	0.88	100	nt	nt	nt
70	O=c1c2ccccc2nc(SCc2ccncc2)n1CC1CCCO1 (stereo not given)	0	i	0.84	97	nt	-29	103
71	CCN(CC)c1ccc2cc(-c3nc(-c4ccc(OC)cc4)cs3)c(=O)oc2c1	-38	?	nt	923*[activator]	-4.0	-223	75
72	COc1ccc(C2C(Oc3ccccc3)C(=O)N2c2ccc(C)c(C)c2)cc1OC (stereo not given)	-4	i	1.1	nt	-0.5	7	77
73	COc1ccccc1/C=C/C(=O)N1CCOCC1	3	i	1	104	-2.3	10	119
74	O=C(O)CSc1nnc(-c2ccccc2)o1	-13	i	0.96	98	-1.1	25	120
75	COc1ccc(NC(=O)C2CCCNC2)cc1OCC(C)C (stereo not given)	0	i	1	112	-0.4	nt	nt
76	CN1CC2CCCC3(C1)C(=O)NC1(CCCCC1)N=C23 (stereo not given)	-7	i	0.87	101	-0.5	15	84
77	Cc1ccc(-n2c(SCC(=O)Nc3ccc4c(c3)OCO4)nnc2-c2ccccn2)cc1	-9	i	0.82	97	-0.4	6	110
78	O=C(NCCc1c[nH]c2ccccc12)c1ccc(S(=O)(=O)NCc2ccco2)cc1	3	i	1.1	106	-2.5	nt	nt
